High-throughput results (PubChem)
Arbovirus anti: blocks arbovirus infection; arbovirus infection cell-based antiviral screen; inhibition, % at 10 µM; 200,000 tested, 0.37% active; AID 1251;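 active means inhibition from about 30%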;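 further: bluetongue infection of BSR cells; cell survival read as ATP light after 72 h; 0% = infected wells without compound and 100% = uninfected wells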
Mtb bLac sens: beta-lactam sensitization of Mtb H37Rv | M. tuberculosis H37Rv growth with meropenem, percent inhibition; hits of this screen are not shown here | inhibition, % at 25 µM | 330,000 tested, 0.27% active | AID 434955;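 active means about 74% or more and at least 40 points above the plate without the antibiotic, then above 30% in a dose series; inconclusive means first-round hits that could not be retested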;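 further: growth measured after seven days incubation then overnight dye step; 0% = bacteria only wells and 100% = bacteria with antibiotic; twin plates without the antibiotic show which effects depend on it; some results filed as inactive read as strong as hits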
RecA intein inh: inhibitors of M. tuberculosis RecA intein splicing; cell-free RecA intein splicing, fluorescence; inhibition, %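 (about 9 µM by stock and volumes)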; 290,000 tested, 0.75% active; AID 2221; in the data active means inhibition above about 30%; inconclusive means no clear call, values can overlap the other calls;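 further: 0% = vehicle wells and 100% = reference inhibitor control wells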
Target sequence (P9WHJ3 whole entry, looked up): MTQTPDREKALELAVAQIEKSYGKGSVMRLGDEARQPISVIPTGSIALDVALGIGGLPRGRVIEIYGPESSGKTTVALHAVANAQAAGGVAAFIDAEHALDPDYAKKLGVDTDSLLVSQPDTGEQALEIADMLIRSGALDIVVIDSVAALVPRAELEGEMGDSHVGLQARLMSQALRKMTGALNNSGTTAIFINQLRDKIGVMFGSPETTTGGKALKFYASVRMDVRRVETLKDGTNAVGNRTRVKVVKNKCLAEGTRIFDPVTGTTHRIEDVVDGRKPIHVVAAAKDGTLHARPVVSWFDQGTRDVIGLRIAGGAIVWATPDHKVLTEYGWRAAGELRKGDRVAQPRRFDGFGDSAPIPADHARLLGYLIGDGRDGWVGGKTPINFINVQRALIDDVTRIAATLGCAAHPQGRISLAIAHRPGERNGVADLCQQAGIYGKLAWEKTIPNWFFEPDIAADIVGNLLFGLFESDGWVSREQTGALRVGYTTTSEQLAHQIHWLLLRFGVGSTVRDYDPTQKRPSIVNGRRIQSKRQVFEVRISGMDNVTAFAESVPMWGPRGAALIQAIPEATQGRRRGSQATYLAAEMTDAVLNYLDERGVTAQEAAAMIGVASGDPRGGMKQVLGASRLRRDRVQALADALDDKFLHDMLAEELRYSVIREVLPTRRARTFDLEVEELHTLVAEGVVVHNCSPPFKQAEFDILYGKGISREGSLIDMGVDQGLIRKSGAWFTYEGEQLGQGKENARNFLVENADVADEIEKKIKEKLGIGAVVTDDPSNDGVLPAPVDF
YopH inh: blocks Yersinia enterocolitica YopH tyrosine phosphatase; inhibition, %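 (about 10 µM by stock and volumes)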; fluorescence Ex485/Em525; 140,000 tested, 0.16% active;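 active means inhibition of 50% or more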;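 further: controls were vehicle for no effect and minimum signal wells for full effect; inactives centre near -20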
Mtb H37Rv: M. tuberculosis H37Rv growth inhibitors, H37Rv strain (AID 1626) | 220,000 tested, 0.95% active | M. tuberculosis H37Rv growth inhibition; higher % means a stronger effect | inhibition, % at 10 µM; hits with a dose series show IC50 in µM;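 active means confirmed in a dose series; inconclusive means inhibition above 80% but not taken into the dose series; inactive means below 80% or under 30% at every dose of the series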;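 further: bacteria incubated seven days before Alamar blue readout; 0% = bacteria only wells and 100% = bacteria with antibiotic wells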
Arbovirus anti repeat: also measured in Arbovirus anti; calls as there; inhibition, %; measured here: 10K subset replicate screen; many hits read low in the repeat;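 first of two repeat runs on a subset; 0% = infected and 100% = uninfected wells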
* marks the source's active call; other numbers are inactive results; ? = inconclusive; · = not tested or not shown. Some of the compounds tested, so the mix of outcomes need not match the whole.

SMILES	Arbovirus anti	Mtb bLac sens	RecA intein inh	YopH inh	Mtb H37Rv	others
O=C(CN1CCN(Cc2ccccc2)CC1)N/N=C/c1c[nH]c2ccccc12	7.9	?	1.2	-25.2	?
CCOC(=O)c1c(C)[nH]c(C(=O)C(C)N2CCCC2)c1C (centres undefined)	-6.3	1.1	-0.9	·	-5.7%
COCCSc1nnc(NC(=O)C2CC(=O)N(c3ccc(Cl)cc3)C2)s1 (centres undefined)	10.1	-9.5	0.3	·	4.3%
Cc1cccc(C)c1NC(=O)C1(N(Cc2ccco2)C(=O)CC2NC(=O)NC2=O)CCCC1 (centres undefined)	12.5	-4.8	-1.0	-4.1	1.2%
Brc1ccc(/C=N/Nc2nncc(-c3ccccc3)n2)o1	-15.8	1.8	-1.6	·	8.1%
COc1ccc(CNCCc2ccc(Cl)cc2Cl)cc1	·	-1.6	-1.7	·	·
CCN(CC)S(=O)(=O)c1ccc(/C=C/C(=O)Nc2ccc(N3CCOCC3)cc2)cc1	·	-4.2	2.0	·	-0.9%
CC1=CC(C)(C)NC(=S)N1c1cc(C)cc(C)c1	14.9	3.5	3.5	·	4.9%
FC(F)(F)c1ccc2c(c1)NCC1CCCN21 (centres undefined)	0.5	6.8	-4.2	·	-5.6%
COc1ccc2c(c1)C1NC(=S)NC(C)(O2)C1C(=O)Nc1ccc(C)cc1C (centres undefined)	4.1	-0.6	-1.0	-30.6	-5.5%
Oc1sc(C=Nc2ccc(F)cc2)c2ccccc12	3.0	6.7	-10.0	-25.1	3.6%
O=C(CCSc1nc(-c2ccco2)cc(C(F)(F)F)n1)Nc1ccc2c(c1)OCO2	-6.0	-10.5	5.0	4.1	2.3%
OC(C#CCN1CCCCC1)c1ccccc1 (centres undefined)	-1.5	-12.3	-2.1	-28.6	-10.7%
COc1ccc(S(=O)(=O)NCC2CCCN(C(=O)c3ccco3)C2)cc1 (centres undefined)	1.3	3.3	-0.9	·	-5.6%
CC1CC(C)CN(C(=O)CNC(=O)c2ccc3ccccc3c2)C1 (centres undefined)	·	-6.7	2.0	·	·
COc1ccccc1C(=O)OCc1nc(N)nc(Nc2ccccc2C)n1	-4.5	0.4	-0.8	-13.0	-9.7%
CN(C)c1ccc(C(=O)c2ccc(N(C)C)c3ccccc23)cc1	-11.6	75.8	0.2	-10.9	·
CCN1CCN(CCCNC(=O)CNC(=O)c2nn(-c3ccc(OC)cc3)c(=O)c3ccccc23)CC1	·	3.9	0.5	·	·
C/C(CC(=O)Nc1ccc(Cl)c(C(F)(F)F)c1)=N\NC(=O)c1ccccc1O	-35.6	27.9	3.3	-4.3	8.6%
CN(C(=O)c1cccs1)C1(C)CCS(=O)(=O)C1 (centres undefined)	·	-3.9	2.8	·	·
Brc1ccc(-c2cn3c(n2)CCc2ccc4cccnc4c2-3)cc1	-8.9	89.4	14.0	-29.6	-2.0%
CC(C(=O)N1CCOCC1)N1c2cccc3cccc(c23)S1(=O)=O (centres undefined)	-2.7	-1.2	-0.1	6.8	-3.4%
CN(C)c1cc2c(c(N(C)C)c1)C(=O)c1ccccc1C2=O	-24.5	0.9	-0.4	-8.7	3.2%
CC(=O)N1N=C2c3ccccc3CCC2C1c1cccs1 (centres undefined)	·	-5.0	6.3	·	-4.8%
CC(=O)N1c2ccc(S(=O)(=O)N3CCC(C(=O)N4CCN(c5cc(Cl)ccc5C)CC4)CC3)cc2CC1C (centres undefined)	·	6.5	9.5	·	·
COCCCNC(=S)NNC(=O)c1ccoc1C	6.9	-6.5	-3.9	1.9	-1.0%
CSCC[C@H](NC(=O)COc1cc2c(c3oc(=O)c(C)c(C)c13)CCC(C)(C)O2)C(=O)O	·	2.3	-1.7	·	·
COc1ccc(NC(=O)c2cccnc2N2CCCC2)cc1	-4.2	2.4	-2.7	-11.8	-4.8%
Cc1nc2ccc(NC(=O)Cc3ccccc3F)cc2s1	1.5	3.0	0.5	·	2.6%
O=C(COc1ccccc1N1C(=O)c2ccccc2C1=O)c1ccc(Cl)cc1	7.5	-4.6	-0.1	-12.5	-4.1%
O=C(N/N=C/c1ccc(Cl)cc1Cl)c1ccc2nc[nH]c2c1	·	2.9	1.3	·	·
CCOc1ncccc1C(=O)OCC(=O)Nc1ccc(C)c(S(=O)(=O)N2CCOCC2)c1	-1.1	-3.0	-1.1	-21.2	10.2%
Cc1ccc(Nc2ncccc2C(N)=O)cc1	-6.8	6.7	-0.4	-18.2	2.1%
COc1ccc(-n2ncc(C(=O)NC3CC3)c2C2CCN(C(=O)OC(C)(C)C)CC2)cc1	·	5.1	-1.2	·	·
Cn1c(CCC(=O)Nc2ccc(F)cc2)nc2cc(S(=O)(=O)N3CCOCC3)ccc21	·	3.3	-1.9	·	·
CC(NC(=O)C1CCN(C(=O)[C@@H]2Cc3ccccc3CN2)CC1)c1ccccc1 (some centres undefined)	·	-4.4	-0.1	·	·
O=C(COC(=O)CNC(=O)c1ccc(Cl)cc1)Nc1ncc(C(F)(F)F)cc1Cl	-5.9	-2.3	0.9	-27.8	-3.0%
COCCN(C(=O)COC(=O)CCc1ccccc1OC)c1c(N)n(Cc2ccccc2)c(=O)[nH]c1=O	·	-1.3	2.5	·	·
Cc1nonc1OCC(C)(COc1nonc1C)NC(=O)c1ccccc1	17.0	-17.0	2.4	-9.3	-11.8%
CC(OC(=O)CCC(=O)c1cccs1)C(=O)Nc1ccc(Cl)cn1 (centres undefined)	-0.8	-7.8	-2.0	-12.4	2.4%
CCn1nc(C(C)C(=O)O)c2ccccc2c1=O (centres undefined)	3.5	8.7	1.9	·	-1.6%
COc1ccccc1NC(=O)COc1cccc2c1CCNC2=O	·	-1.6	0.5	·	·
O=C(Nn1cnnc1)c1ccc(F)cc1	·	-7.0	0.8	·	·
CCOC(=O)c1sc(Nc2ccccc2Cl)nc1C	·	-7.1	0.0	·	8.6%
Cc1cn(CCOc2ccc(Cl)cc2)c(=O)[nH]c1=O	·	4.3	-2.4	·	·
Cc1cc(C)c(S(=O)(=O)N2CCOC2CNC(=O)C(=O)NCCCN2CCOCC2)c(C)c1 (centres undefined)	·	-0.7	1.3	·	·
COc1cc(CNCc2ccccn2)ccc1OCC(N)=O	-5.9	6.5	-0.6	0.7	-5.3%
CCc1ccc(CN2C(=O)c3ccccc3C2C(=O)NCC2CCCO2)cc1 (centres undefined)	2.8	-5.9	0.2	·	2.8%
O=C(c1ccc(F)cc1)N1CCN(C2CC3CCC2C3)CC1 (centres undefined)	12.4	-8.8	-0.2	-45.2	-1.2%
O=S(=O)(Nc1ccc(-c2ccc3nncn3n2)cc1)c1cccc(F)c1	·	-4.0	-0.6	·	·
Cc1ccc(C(=O)NNC(=O)/C=C\C(=O)O)cc1	·	-1.8	-1.1	·	5.0%
CCCCn1c(N)c(N(CCOC)C(=O)c2cccc(OCc3ccccc3)c2)c(=O)[nH]c1=O	·	-9.8	-0.9	·	·
COCCN(C(=O)CN1CCc2ccccc2C1)c1c(N)n(Cc2ccccc2)c(=O)[nH]c1=O	2.3	-7.3	-0.3	-25.5	-3.5%
CC(NC(=O)C1CCC1)c1ccccc1 (centres undefined)	2.2	0.2	-2.6	4.8	-3.6%
O=C(NCc1ccco1)C(c1ccco1)N(C(=O)Cn1nnc2ccccc21)c1ccc2c(c1)CCC2 (centres undefined)	·	-11.0	12.3	-13.4	-3.7%
CCc1ccc(S(=O)(=O)NCc2cn3c(C)csc3n2)s1	1.9	3.1	-5.9	-13.3	13.2%	Arbovirus anti repeat=10.6
CCCCP(=O)(O)CCC(=O)O	4.8	-23.5	1.5	23.0	-1.8%
Cc1cc(=O)[nH]c(SCC(=O)Nc2ccc(S(N)(=O)=O)cc2)n1	12.6	-10.1	1.8	·	-3.4%
Cc1ccc(S(=O)(=O)N(C)c2ccc(C(=O)NCC3(N(C)C)CCCCC3)cc2)cc1	·	-6.1	-5.9	·	·
CCCCCc1ccc(-c2ccc(C(=O)O)cc2)nc1	-11.8	0.6	2.6	-6.9	1.8%

The closing 5 compounds of the part above come first, to join the parts:
SMILES	Arbovirus anti	Mtb bLac sens	RecA intein inh	YopH inh	Mtb H37Rv	others
CCc1ccc(S(=O)(=O)NCc2cn3c(C)csc3n2)s1	1.9	3.1	-5.9	-13.3	13.2%	Arbovirus anti repeat=10.6
CCCCP(=O)(O)CCC(=O)O	4.8	-23.5	1.5	23.0	-1.8%
Cc1cc(=O)[nH]c(SCC(=O)Nc2ccc(S(N)(=O)=O)cc2)n1	12.6	-10.1	1.8	·	-3.4%
Cc1ccc(S(=O)(=O)N(C)c2ccc(C(=O)NCC3(N(C)C)CCCCC3)cc2)cc1	·	-6.1	-5.9	·	·
CCCCCc1ccc(-c2ccc(C(=O)O)cc2)nc1	-11.8	0.6	2.6	-6.9	1.8%
Cc1cc(C)c(S(=O)(=O)N2CCOC2CNC(=O)C(=O)NCCCN2CCCC2=O)c(C)c1 (centres undefined)	·	-13.1	1.7	·	·
CCSc1nnc(NC(=O)CSc2ncccn2)s1	8.1	-3.8	-0.8	-9.7	-6.2%
CC1CCCC(NC(=O)CSc2nnnn2C)C1C (centres undefined)	0.6	-8.2	-3.6	-40.2	16.8%	Arbovirus anti repeat=-4.5
CCN(CC)CCNC(=O)c1ccc(NC(=O)CC(NC(=O)c2ccccc2Cl)c2ccccc2)cc1 (centres undefined)	·	-2.4	-0.5	·	·
Cc1cc(Nc2ccccc2)n(-c2ccc(C(=O)O)cc2)n1	-3.0	-8.4	0.2	·	1.3%
COC(=O)C(O)(CC(=O)Nc1ccc(OC(F)(F)F)cc1)C(F)(F)F (centres undefined)	1.5	3.6	-3.7	-25.3	-6.6%
COC(=O)C1(C)CN(S(=O)(=O)c2ccc(C)cc2)c2cc(OC)ccc2C1=O (centres undefined)	-9.2	-0.4	5.0	-34.5	6.2%
CCc1ccc(N(CC(=O)NC2CCCC2)C(=O)CCC(=O)Nc2cc(C)on2)cc1	·	-5.8	5.5	·	·
CCCCS(=O)(=O)Nc1ccc(C)cn1	3.2	-1.8	0.9	-16.6	-3.5%
O=C(c1ccc(Cl)c(S(=O)(=O)N2CCOCC2)c1)N1CCN(Cc2ccccc2)CC1	-7.3	-1.2	0.2	-17.0	-4.1%
O=C(O)c1ccc(-n2c(O)c(C=C3N=c4ccccc4=N3)sc2=S)cc1	·	1.1	6.3	·	-5.1%
COc1ccccc1N(C)S(=O)(=O)c1ccc(Cl)c(C(=O)NC2=NCCS2)c1	-1.1	-19.2	0.5	·	5.7%
O=C(Cc1ccc(Cl)cc1)c1ccc(O)cc1	·	55.5	2.1	·	-1.4%
CCC(C)(C)NC(=O)C1CCN(c2nc(OC)nc(OC)n2)CC1	-3.6	-6.0	3.4	·	-4.7%
CC1(C)CC(=O)C2=C(C1)c1c(ccc3ncccc13)NC2c1cccs1 (centres undefined)	-18.3	0.8	-4.0	-17.0	-4.1%
O=C(Nc1cccc(C(=O)Nc2ccc(F)cc2F)c1)c1ccccc1	·	-7.8	-2.7	·	·
COc1cc(CCC(=O)Nc2nnc(-c3cccnc3)s2)cc(OC)c1OC	-0.8	6.2	3.4	·	-2.4%
CC(C)Oc1cccc(C(=O)Nc2ncn[nH]2)c1	·	-4.2	-1.6	·	·
COc1ccccc1Cc1noc(C(C)(C)NC(=O)c2ccccc2)n1	-3.1	-5.9	0.9	-15.5	-4.3%
Cn1c(-c2ccc(F)cc2)cnc1NCc1ccc(F)cc1	3.4	?	-2.5	19.2	-8.1%
CC(C)c1cc(C(=O)N2CCCC(C(=O)c3ccc4ccccc4c3)C2)on1 (centres undefined)	0.6	-6.6	-0.2	·	5.2%
O=C(O)CC/C(=C\c1ccc(N2CCOCC2)c([N+](=O)[O-])c1)c1nc2ccccc2s1	8.5	·	16.7	·	2.6%
CSc1nc(SCC(=O)O)c2c3c(sc2n1)COC(C)(C)C3	·	-14.4	-1.1	·	-2.5%
COc1ccc(NC(=O)CCCC(=O)OCC(=O)c2cccc(OC)c2)cc1	·	-0.5	1.9	·	·
CCOc1ccc(S(=O)(=O)NC2CCCC2)cc1C	·	-4.3	-0.2	·	·
Fc1cccc2sc(Nc3nc4cc5c(cc4s3)OCO5)nc12	8.6	68.9	0.0	-23.9	54.9%
CCOC(=O)c1sc(=S)sc1SCc1cccc(C(F)(F)F)c1	2.5	-0.8	1.6	-16.9	-9.0%

Molecules listed so far containing bromine (two):
SMILES	Arbovirus anti	Mtb bLac sens	RecA intein inh	YopH inh	Mtb H37Rv	others
Brc1ccc(/C=N/Nc2nncc(-c3ccccc3)n2)o1	-15.8	1.8	-1.6	·	8.1%
Brc1ccc(-c2cn3c(n2)CCc2ccc4cccnc4c2-3)cc1	-8.9	89.4	14.0	-29.6	-2.0%
